Screening results from PubChem.
VDR inh: vitamin D3 receptor (human) inhibition. P11473. VDR-SRC2-3 peptide fluorescence polarization, 2 h. Potency, µM, inactives show max response, negative = inhibition, most hits filed as inhibitors. hit rate 0.93% among 400,000. AID 504847; active = well fitted inhibition curve with a large enough effect; inconclusive = small, poorly fitted or top-dose-only effect, or another doubt; inactive = no such curve, though single readings can be large or run the other way; note: series mostly up to about 120 µM
Target sequence (P11473 whole entry, looked up): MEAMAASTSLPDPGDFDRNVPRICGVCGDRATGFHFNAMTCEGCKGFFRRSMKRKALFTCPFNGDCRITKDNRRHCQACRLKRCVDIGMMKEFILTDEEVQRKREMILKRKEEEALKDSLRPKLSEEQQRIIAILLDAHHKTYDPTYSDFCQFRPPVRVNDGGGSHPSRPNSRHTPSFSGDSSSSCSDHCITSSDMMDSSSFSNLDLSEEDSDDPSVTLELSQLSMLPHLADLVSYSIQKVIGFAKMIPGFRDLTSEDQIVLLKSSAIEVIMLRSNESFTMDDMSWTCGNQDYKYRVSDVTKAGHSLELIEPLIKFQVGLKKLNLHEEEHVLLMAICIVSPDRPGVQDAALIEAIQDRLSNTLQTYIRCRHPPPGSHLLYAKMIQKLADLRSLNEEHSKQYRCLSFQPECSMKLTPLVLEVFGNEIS
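The screen uses fluorescence polarization to detect compounds that interfere with recruitment of the SRC2-3 coactivator peptide to VDR; plates are read after 2 h at room temperature.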
Numbers without * were called inactive; u = inconclusive; & = joins results of further samples. % is set by controls: 0 for no effect and ±100 for the full control effect; potency is the fitted concentration of half-maximal effect. This is a subset; count on the stated rates, not on these rows.

SMILES	VDR inh
c1ccc(OCCSc2ncnc3nc[nH]c23)cc1	5%
CCOc1cccc(/C=C2\NC(=S)N(c3ccccc3)C2=O)c1O	-3%
Cc1ccc(C(=O)Nc2cccc(C(=O)O)c2)cc1	-4%
O=Cc1ccc(-c2cccs2)s1	-19%
O=C(NCC1CC1)c1onc(CSc2ccc(F)c(F)c2)c1C(=O)NCC1CC1	-16%
CC1Oc2ccccc2N(Cc2cccnc2)C1=O (stereo not drawn)	-3%
Cc1cccc(C(=O)Nc2cccc(C(=O)OCc3cc(=O)n4nc(C5CC5)sc4n3)c2)c1	11%
COc1ccc(-c2nc(-c3cccc(C)c3)no2)cc1OC	-9%
C/C(=N\Nc1cccc(C(=O)O)c1)c1ccc(Cl)s1	-29%
O=c1cc(N2CCCCC2)c2ccccc2o1	1%
COc1cccc(OC)c1OCCCCn1cnc2ccccc2c1=O	-13%
CCOC(=O)c1cc2c(=O)n3ccccc3nc2n(CC(C)C)c1=NC(=O)c1cc2ccccc2o1	-4%
Cc1nc2c(c3c1[nH]c1ccccc13)C(O)CC(C)(C)C2 (stereo not drawn)	-4%
O=C(Cn1c(=O)oc2ccccc21)Nc1ccccc1Cl	-1%
CC(=O)Nc1ccc(C(=O)Nc2cccc(S(=O)(=O)NC3=NCCC3)c2)cc1	-5%
COc1ccc(C2=C(Nc3ccc(Br)c(C)c3)c3ccccc3C2=O)cc1	-12%
COC(=O)c1cc(S(=O)(=O)NCc2ccc3c(c2)OCO3)c[nH]1	8%
CN(Cc1ccccc1)S(=O)(=O)c1ccc(OCC(=O)NCc2cccnc2)cc1	-19%
CCc1ccc(NCc2cc3ccc(OC)cc3n(CC(=O)Nc3ccccc3C)c2=O)cc1	-2%
COc1ccc(-c2cc(-c3ccccc3)nc(SCC(=O)Nc3ccccc3C)c2C#N)cc1	u
c1ccc(-n2ncc3c(NCc4ccc5c(c4)OCO5)ncnc32)cc1	-13%
CCc1nc(SCC(=O)N2CCN(c3ccccc3)CC2)c2oc3ccccc3c2n1	-3%
Cc1ccc(S(=O)(=O)N2CCC(C(=O)Nc3ccc(N4CCOCC4)cc3)CC2)cc1C	-9%
CNc1ccc(Br)cc(C(=O)/C=C/c2cccc(Cl)c2Cl)c1=O	u
CCOC(=O)C1CCCN(CCC(=O)Nc2ccc(OC)cc2OC)C1 (stereo not drawn)	2%
The listing continues.
SMILES	VDR inh
CC(=O)c1c(C)[nH]c(C(=O)COC(=O)CCNS(=O)(=O)c2ccc(C)c(C)c2)c1C	-8%
Cc1ccc(/C=N/NC(=O)c2cc3ccccc3cc2O)o1	-7%
CCn1nc(C)c(CCN(C)C(=O)Nc2ccc(C)c(Cl)c2)c1C	6%
CCCNC(=O)COc1coc(CN2CCN(Cc3ccccc3)CC2)cc1=O	8%
CC1CC(C)CN(S(=O)(=O)c2cccc3nsnc23)C1 (stereo not drawn)	6%
CCCCN(CC)CCCNC(=O)c1cc2c(=O)[nH]c3ccccc3c2n1C	7%
O=C(NCCN1C(=O)CSC1=O)C1CC(=O)N(c2ccccc2)C1 (stereo not drawn)	10%
CCc1ccc(NC(=O)C2CCCN(c3nnc(C)c4c(C)n(-c5ccccc5)nc34)C2)cc1 (stereo not drawn)	13%
Cc1ccc(S(=O)(=O)NCC(=O)Nc2ccc3c(c2)OCCO3)cc1	13%
CN(C)S(=O)(=O)c1ccc(N2CCCC2)c(C(=O)Nc2nccs2)c1	5%
CCN(CC)S(=O)(=O)c1ccc(N2CCN(CCOc3ccc(OC)cc3)CC2)nc1	-1%
COC(=O)c1ccc(NC(=O)CSCC(=O)OCC(=O)c2ccc(Br)cc2)cc1	0%
O=C(/C=C/c1ccc(F)cc1)NC(=S)NC1CCCCC1	-4%
Cc1ccc(C(=O)CCC(=O)OCC(=O)Nc2ccc3[nH]c(=O)[nH]c3c2)cc1	8%
O=C(O)c1ccc2c(c1)ncn2-c1ccc(F)c(F)c1	-8%
CC(=O)c1ccc(Nc2cc(C)nc3c(C)cccc23)cc1	-19%
O=C(Nc1cccc2ncccc12)c1cccc(Br)c1	17%
COc1cc(NC(=O)N[C@@H](CCSC)C(=O)O)cc(OC)c1	23%
COc1cccc(CNc2ccc(S(=O)(=O)N3CCN(C)CC3)cn2)c1	4%
CCOCc1c(C(=O)NC2=Nc3ccccc3NC(CC)=C2C(=O)OCC)oc2ccccc12	-8%
COc1ccc(CCNC(=O)c2[nH]c(C)c(C(C)=O)c2C)cc1OC	-11%
COc1ccc(CCC(=O)Nc2nnc(C(F)(F)F)s2)cc1	17%
CCOC(=O)C1CCN(CC(=O)c2ccc(O)c(C)c2O)CC1	-11%
CC(CCN(C)C)OC(=O)c1ccc(C(C)c2ccccc2)o1 (stereo not drawn)	7%
O=C(NC1CCCCCC1)C(=O)NC1CCCC1	-25%
(further entries)
SMILES	VDR inh
CC(NC(=O)c1ccc(Cl)c(S(=O)(=O)N2CCCCCC2)c1)c1cccnc1 (stereo not drawn)	-10%
CC(=O)NC1=NN(C(C)=O)C(C)(CCS(=O)(=O)c2ccc(Br)cc2)S1 (stereo not drawn)	-5%
O=C(NCc1cccc(F)c1)C1CCC(=O)N(C2CCCC2)C1 (stereo not drawn)	5%
CC(=O)N1CCN(Cc2nc3cc([N+](=O)[O-])ccc3n2C)CC1	-2%
NC(=O)C1CCN(c2nc(-c3ccccc3Br)cs2)CC1	-1%
COc1ccc(-c2nnc(SCC(=O)Nc3ncc(C(F)(F)F)cc3Cl)n2CC(C)C)cc1	-15%
Cc1ccc(S(=O)(=O)N(Cc2ccccc2)C(C)C)cc1	16%
COc1ccc(C(=O)N(C)C2CCCc3ccccc32)cc1OC1CCN(C(C)C)CC1 (stereo not drawn)	-18%
O=C(c1ccco1)N1CCN(c2nnc(-c3ccccc3)c3ccccc23)CC1	-1%
CCN(C(=O)Cc1cccs1)c1nnc(-c2cccnc2)s1	12%
CCOC(=O)c1cc(C)n(CC2CCC(C(=O)Nc3ccccc3OC)CC2)c1C (stereo not drawn)	20%
Cc1ccccc1N1CCN(C2CCCN(C(=O)CCC3(C)CC3)C2)CC1 (stereo not drawn)	10%
N#Cc1nc(N2CCCCC2)nc(N2CCOCC2)n1	5%&-12%
CCc1cccc(C)c1NC(=O)C1CCN(c2nnc(C)c3c(C)n(-c4ccccc4)nc23)CC1	5%
Cc1ccc(N=C2NC(=O)/C(=C\c3cccs3)S2)cc1C	5%
COC(=O)c1ccc(CN2C(=O)NC3(CCC(C)CC3)C2=O)cc1 (stereo not drawn)	-10%
C/C(=N\NC(=O)C(c1ccccc1)c1ccccc1)c1ccccn1	3%
CCC(C)NC(=O)CSC1=Nc2ccccc2C2=NC(CC(=O)NCc3ccc(F)cc3)C(=O)N12 (stereo not drawn)	7%
Cc1ccc(-c2ccc(S(=O)(=O)NCc3ccco3)cc2)cc1	-9%
Nc1c(-c2ccccc2)cnn1-c1cccc([N+](=O)[O-])c1	3%
c1ccc2nc3c(nc2c1)OCC1CCCCN31 (stereo not drawn)	1%
COc1cc(C2/C(=C(\O)c3ccc4c(c3)OCCO4)C(=O)C(=O)N2c2nnc(C)s2)cc(OC)c1OC (stereo not drawn)	18%
COc1ccc(-c2nn3c(-c4cc(-c5ccccc5)n[nH]4)nnc3s2)cc1	-17%
O=C(CN1C(=O)NC(Cc2c[nH]c3ccccc23)C1=O)Nc1ccc(F)c(F)c1F (stereo not drawn)	-5%
COc1cccc(N=Cc2c(O)n(-c3cccc(C)n3)c(=O)c3ccccc23)c1	-20%

Structural class: the entries above with a COOH group.
SMILES	VDR inh
Cc1ccc(C(=O)Nc2cccc(C(=O)O)c2)cc1	-4%
C/C(=N\Nc1cccc(C(=O)O)c1)c1ccc(Cl)s1	-29%
O=C(O)c1ccc2c(c1)ncn2-c1ccc(F)c(F)c1	-8%
COc1cc(NC(=O)N[C@@H](CCSC)C(=O)O)cc(OC)c1	23%

(cont.)
SMILES	VDR inh
COc1ccc([C@@H]2[C@@H]3C(=O)N(C(C)(C)C)C(=O)[C@@H]3[C@]3(C)C(=O)N(c4cccc(Cl)c4)C(=O)N23)cc1	-3%
Cc1cc(Cl)c(Cl)cc1S(=O)(=O)NCCCn1ccnc1	-8%
CN1CCN(C(=S)Nc2cccc(S(=O)(=O)N(C)C)c2)CC1	-11%
O=C(COC(=O)Cc1ccc(S(=O)(=O)N2CCOCC2)s1)Nc1ccc(OC(F)F)cc1	-13%
CCSCc1nnc(SCC(=O)c2ccc(OC)cc2)n1C	-21%
COc1cccc(NC(=O)NC(C)C2CC3CCC2C3)c1 (stereo not drawn)	11%
Cc1cc(C)c(NS(=O)(=O)c2cccc3cccnc23)c(C)c1	12%
COc1ccccc1CC(=O)Nc1ccc2nc(Nc3cccc(C(F)(F)F)c3)cc(C)c2c1	15%
CCOc1ccc(Oc2ccccc2NC(=O)CSCC(=O)Nc2cc(C)on2)cc1	-7%
CCN(c1ccccc1)S(=O)(=O)c1nnc(NC(=O)C2CCCCC2)s1	1%
O=C1CC(c2ccc3c(c2)OCO3)c2ccc(O)cc2O1 (stereo not drawn)	5%
Cc1c(NC(=O)C2C3C=CC(C3)C2C(=O)O)c(=O)n(-c2ccccc2)n1C (stereo not drawn)	-3%
CN(C)c1ccc(C(=O)Nc2ccc(S(=O)(=O)Nc3nccs3)cc2)cc1	2%
Cn1c(=O)c2ccccc2n(CC(=O)NCCC2=CCCCC2)c1=O	7%
CC(=O)Nc1nc2ccc(-c3nc4ccccc4o3)cc2s1	3%
CCN(CC(=O)Nc1ccccc1OC)C(=O)CN1C(=O)NC(C)(c2ccc(C)cc2)C1=O (stereo not drawn)	-10%
Cc1cc(N2C(=O)C(O)=C(C(=O)c3cc4ccccc4o3)C2c2ccc([N+](=O)[O-])cc2)no1 (stereo not drawn)	-5%
CCCN(Cc1cc2cc(OC)ccc2[nH]c1=O)C(=O)c1ccco1	-4%
O=C(c1ccco1)N1CCN(c2ccnc3cc(Cl)ccc23)CC1	7%
CCC(=O)Nc1cc2nn(-c3ccccc3)nc2cc1Cl	6%
Cc1cc(C)n(Cc2ccc(F)cc2)c(=O)c1C#N	2%
COc1ccccc1CN1CCC(n2nccc2NC(=O)CCc2ccccc2)CC1	-5%
COCCNc1ccc2cc(S(=O)(=O)N3CCCCC3)ccc2n1	4%
Fc1ccc(F)c(C2=NNC(=Nc3ccccc3F)SC2)c1	-26%
Cc1c(OCC(=O)NCC2CCC(C(=O)O)CC2)ccc2c(-c3ccccc3)cc(=O)oc12 (stereo not drawn)	-17%
The results go on.
SMILES	VDR inh
O=C(Cc1ccccc1)Nc1ccccc1C(=O)N1CCN(c2ccccc2)CC1	9%
CCCCC(=O)Nc1ccc(NC(=O)C2CC2)nc1	5%
Cc1nc2c(C(=O)NCCC(C)C)c[nH]n2c(=O)c1Cl	-9%
CC(=O)N1CCc2c(sc3c2c(=O)n(Cc2ccccc2)c(=O)n3Cc2ccc(Cl)cc2)C1	4%
Cc1ccc(-n2c(-c3cc(C)n(C)n3)n[nH]c2=S)cc1	4%
CCCNC(=O)C1CCN(S(=O)(=O)c2cccs2)CC1	-13%
Cc1cc(C(=O)OCC(=O)NCCc2ccccc2)c2ccccc2n1	-9%
O=C(COC(=O)c1cc(Cl)ccc1[N+](=O)[O-])Nc1cccc2ccccc12	-14%
O=C(Nc1ccc(Br)cc1)c1ccc(F)c(S(=O)(=O)N2CCCc3ccccc32)c1	-3%
COc1cccc(CNC(=O)Cn2c(=O)n3nc(-c4cccc(F)c4)nc3c3ccccc32)c1	11%
COc1ccccc1OCc1nc(C#N)c(N2CC(C)CC(C)C2)o1 (stereo not drawn)	2%
CCCSc1ncc(Cl)c(C(=O)NCc2ccc(C)cc2)n1	5%
CC1CCc2c(sc3nc4n(c(=O)c23)CCS4)C1 (stereo not drawn)	7%
CCCCOCCCNS(=O)(=O)Cc1ccccc1	18%
CCOC(=O)c1sc(NC(=O)CSc2nnc(-c3ccc(OC)cc3)n2CCOC)nc1C	-2%
CC(C)C1(C)C(=O)N=C2c3ccccc3C(=O)N21 (stereo not drawn)	-5%
Clc1ccc(-c2cn(-c3ccccc3)c3[n+]2CCS3)cc1	-6%
CCOc1ccc(NC(=O)CC2Nc3ccccc3NC2=O)cc1 (stereo not drawn)	9%
COc1ccc(-n2c(SCC(=O)NCc3ccco3)nnc2-c2c[nH]c3ccccc23)cc1	6%
CC(C)c1ccc(-n2nnnc2SCC(=O)NC2CC2)cc1	-9%
CCN1C[C@@H]2[C@@H]3C(=O)N(C)C(=O)[C@@H]3[C@](Cc3ccccc3)(C1=O)N2C(=O)c1ccccc1	4%

Entries listed so far with an NH in an aromatic ring:
SMILES	VDR inh
c1ccc(OCCSc2ncnc3nc[nH]c23)cc1	5%
Cc1nc2c(c3c1[nH]c1ccccc13)C(O)CC(C)(C)C2 (stereo not drawn)	-4%
COC(=O)c1cc(S(=O)(=O)NCc2ccc3c(c2)OCO3)c[nH]1	8%
CC(=O)c1c(C)[nH]c(C(=O)COC(=O)CCNS(=O)(=O)c2ccc(C)c(C)c2)c1C	-8%
CCCCN(CC)CCCNC(=O)c1cc2c(=O)[nH]c3ccccc3c2n1C	7%
Cc1ccc(C(=O)CCC(=O)OCC(=O)Nc2ccc3[nH]c(=O)[nH]c3c2)cc1	8%
COc1ccc(CCNC(=O)c2[nH]c(C)c(C(C)=O)c2C)cc1OC	-11%
COc1ccc(-c2nn3c(-c4cc(-c5ccccc5)n[nH]4)nnc3s2)cc1	-17%
O=C(CN1C(=O)NC(Cc2c[nH]c3ccccc23)C1=O)Nc1ccc(F)c(F)c1F (stereo not drawn)	-5%
CCCN(Cc1cc2cc(OC)ccc2[nH]c1=O)C(=O)c1ccco1	-4%
Cc1nc2c(C(=O)NCCC(C)C)c[nH]n2c(=O)c1Cl	-9%
Cc1ccc(-n2c(-c3cc(C)n(C)n3)n[nH]c2=S)cc1	4%
COc1ccc(-n2c(SCC(=O)NCc3ccco3)nnc2-c2c[nH]c3ccccc23)cc1	6%
